HNF4A DNA FP: change in binding of human HNF4 alpha to DNA | HNF4a-FITC DNA binding, fluorescence polarization, 1 h | 360,000 compounds, 0.3% hits | P41235 | activity change, % at 10 µM; in the data active = activity change above about 30%, passing the limit was not always enough;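 note: controls were the assay level and a saturating level of protein; the project sought stronger binding though the title names inhibitors; some compounds called inactive have numbers as strong as hits; positive values seem to mean higher polarization but the record does not say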
Target sequence (P41235 whole entry, looked up): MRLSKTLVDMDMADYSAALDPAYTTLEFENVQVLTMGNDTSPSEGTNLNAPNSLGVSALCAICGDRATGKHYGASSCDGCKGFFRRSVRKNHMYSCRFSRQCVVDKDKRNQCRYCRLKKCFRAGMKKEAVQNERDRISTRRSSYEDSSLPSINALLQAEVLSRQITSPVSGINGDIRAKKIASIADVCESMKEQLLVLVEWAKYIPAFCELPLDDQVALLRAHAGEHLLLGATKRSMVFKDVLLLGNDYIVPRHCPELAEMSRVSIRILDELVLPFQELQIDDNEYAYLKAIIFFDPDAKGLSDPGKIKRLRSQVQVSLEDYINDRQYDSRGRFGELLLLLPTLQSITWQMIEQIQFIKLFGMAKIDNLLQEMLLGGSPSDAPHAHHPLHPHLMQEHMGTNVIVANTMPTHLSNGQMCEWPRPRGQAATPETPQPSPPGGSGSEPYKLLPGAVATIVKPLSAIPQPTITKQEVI
Vif TR-FRET: inhibitors of Vif binding to APOBEC3G peptide, primary screen, biochemical, TR-FRET, GST-Vif 1-94, biotin-A3G peptide, dose response retest (AID 1117319) | TR-FRET GST-Vif / biotin-A3G peptide binding; higher % means a stronger effect; test concentration not given here; strong numbers were not always called active | inhibition, %, or IC50 in µM where a hit was titrated | 260,000 compounds, 0.57% hits;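 active = above the screen mean plus three standard deviations and confirmed in dose response; inconclusive = results disagree or hit not tested in dose response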;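 note: Vif residues 1-94 fused to GST binding biotinylated APOBEC3G peptide 110-148; 0% = full assay without inhibitor and 100% = GST in place of GST-Vif; retest series ran down from 100 µM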
B2AR ag: agonists of human beta-2 adrenergic receptor inducing internalization; 340,000 compounds, 0.43% hits; Am2.2-beta2AR cells, FAP receptor internalization, flow cytometry; reference of the scale not given here; AID 504454; response, % (test concentration not listed); P07550;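 active = response above a set limit, near 3 SD of response in nonfluorescent compounds, cut at about 42% in these data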;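 note: stock transfer was 100 nL into about 11 µL; a reference agonist was the positive control; negative values mostly stem from fluorescent compounds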
Target sequence (P07550 whole entry, looked up): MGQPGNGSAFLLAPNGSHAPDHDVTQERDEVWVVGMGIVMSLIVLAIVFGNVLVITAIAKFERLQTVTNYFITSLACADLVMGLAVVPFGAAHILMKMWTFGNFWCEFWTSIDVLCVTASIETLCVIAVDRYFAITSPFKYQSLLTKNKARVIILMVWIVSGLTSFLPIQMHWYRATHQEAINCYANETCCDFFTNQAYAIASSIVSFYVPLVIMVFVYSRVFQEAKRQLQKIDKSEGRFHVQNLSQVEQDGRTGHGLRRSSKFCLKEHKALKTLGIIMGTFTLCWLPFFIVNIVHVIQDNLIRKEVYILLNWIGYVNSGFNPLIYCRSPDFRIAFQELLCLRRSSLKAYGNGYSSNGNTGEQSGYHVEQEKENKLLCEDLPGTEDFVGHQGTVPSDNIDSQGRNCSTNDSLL
ALR inh: blocks human ALR sulfhydryl oxidase activity; purified ALR, DTT oxidation, H2O2 HRP-luminol luminescence; P55789; 290,000 compounds, 3.8% hits; inhibition, % (concentration not given with the values);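 active = mean and each replicate at 75% or more; inconclusive = only one of the two met; inactive = neither met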;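 note: stock transfer was 7.5 nL into about 7.5 µL; 0% = neutral wells and 100% = wells with inactivated enzyme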
Target sequence (P55789 whole entry, looked up): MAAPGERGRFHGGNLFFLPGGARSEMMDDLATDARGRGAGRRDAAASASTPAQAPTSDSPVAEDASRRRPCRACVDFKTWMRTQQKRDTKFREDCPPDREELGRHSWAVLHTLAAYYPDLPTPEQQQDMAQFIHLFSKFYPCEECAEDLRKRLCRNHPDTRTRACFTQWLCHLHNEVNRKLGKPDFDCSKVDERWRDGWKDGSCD
LANA-H2A inh: blocks KSHV LANA binding to histone H2A/H2B. Q9QR71. inhibition, % (test concentration not listed). cell-free LANA-H2A/H2B peptide, fluorescence polarization. 320,000 compounds, 0.6% hits; in the data active = inhibition mostly above about 10%, no sharp cut-off; inactive = mostly below about 6.7%;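 note: stock transfer was 7.5 nL into about 10 µL; 0% = median of vehicle wells and 100% = median of positive control wells; one replicate is shown; the record names a cut of 25% in any replicate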
RanGTP-Imp inh: inhibitors of RanGTP-importin-beta interaction, primary screen, biochemical, FRET, CFP-Ran, YFP-importin-beta, homogeneous; cell-free CFP-Ran/YFP-importin-beta FRET ratio; inhibition, % (no concentration beside the values); 300,000 compounds, 1.1% hits;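 active = most replicates above 15%; inconclusive = exactly half above 15%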;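 note: 0% = DMSO wells and 100% = Ran loaded with GDP instead of GTP; wells of about 40 µL received 100 nL stock; the first replicate is given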
Calb FLC: affects C. albicans growth with fluconazole; AID 1979; C. albicans CaCi-2 (fluconazole-resistant clinical isolate) + fluconazole, Alamar Blue growth, 48 h; 300,000 compounds, 0.57% hits; growth inhibition, % (concentration not given with the values);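 active = most replicates above 75%; inconclusive = exactly half above 75%; inactive = most below 75%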;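 note: all wells also contain fluconazole at 8 µg/ml as a sub-toxic cotreatment; 0% = median of DMSO wells and 100% = median of geldanamycin control wells; wells of about 8 µL received 7.5 nL stock; the first replicate is given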
* = called active by the depositor; ? = inconclusive; · = no result given; & = joins results of further samples.

SMILES | HNF4A DNA FP | Vif TR-FRET | B2AR ag | ALR inh | LANA-H2A inh | RanGTP-Imp inh | Calb FLC
COc1ccc(CCNC(=O)CSCc2ccc(C)cc2)cc1OC | -1.5 | -7% | -2 | -5 | -2.1 | 4.6 | -2
O=S(=O)(NCCS(=O)(=O)N1CCN(c2ccccc2)CC1)c1ccc(F)cc1 | -0.6 | -4% | -3 | -12 | -7.0 | 7.5 | 0
O=C(OCC(=O)N1CCN(c2ccccc2)CC1)c1ccc(Cl)cc1[N+](=O)[O-] | 1.2 | · | -13 | -9 | 5.1 | · | 0
CCOC(=O)c1c(C)n(C)c2cc(Br)c(O)c(O)c12 | 2.5 | 16% | -5 | 7 | 1.3 | -3.8 | 18
C=CCn1c(=O)/c(=C2/Sc3cc(OC)ccc3N2C)s/c1=C1\C(=O)N(CC)C(=S)N1C | · | -1% | · | -6 | -2.0 | 3.4 | -16
CCOC(=O)c1c(CSc2ccccc2)oc2cc(Br)c(O)c(CN(C)C)c12 | -1.9 | -4% | -7 | 82* | 3.7 | 3.3 | 0
CCOC(=O)C1=CN(Cc2ccc(OC)cc2)C=C(C(=O)OCC)C1c1cccs1 | 2.9 | -6% | 1 | -7 | 2.1 | 3.2 | -9
O=c1[nH][nH]c(=O)c2nc(Nc3ccccc3)ncc12 | 0.9 | 44% | 0 | · | · | · | ·
COc1ccc(N2CCN(C(=O)CNC(=O)c3ccco3)CC2)cc1 | -4.5 | · | 1 | 59 | 2.0 | 0.2 | -5
O=C1N=c2ccccc2=C1c1sc(=S)n(Cc2ccccc2Cl)c1O | -2.0 | 2% | -10 | -1 | 13 | -4.9 | 4
CCC(C)[C@@H](CN(N=O)[C@@H](Cc1ccccc1)CN(C)N=O)N(CCc1ccccc1)N=O (stereo not given in full) | -2.2 | 2% | 6 | · | -0.5 | 0.2 | 4
CCC(c1ccccc1)c1nc(-c2cccnc2)no1 (stereo not given) | -1.6 | 17% | -18 | 1 | -0.6 | -2.0 | 10
COc1ccc2c(c1OC)C(=O)N1c3ccccc3COC21 (stereo not given) | 0.5 | 2% | -33 | -3 | 3.7 | 1.3 | 1
COc1ccc(-c2ocnc2C(=O)N2CCN(C(c3ccccc3)c3ccccc3)CC2)cc1 | 0.1 | -2% | 5 | · | 1.9 | ? | 8
CSc1nc(-c2ccccc2)nc(NC(=O)C(C)C)c1C(C)=O | 4.4 | ? | 2 | -2 | 2.6 | -1.6 | 2
Cc1cccc(OCC(=O)OCC(=O)c2c(N)n(C)c(=O)n(C)c2=O)c1 | -0.1 | 22% | -1 | -4 | -3.5 | 0.0 | -1
O=C(Nc1ccc([N+](=O)[O-])cn1)c1cc(-c2cccc(Br)c2)nc2ccccc12 | -2.3 | · | 4 | -1 | -3.0 | 5.5 | 19
Cc1sc2ncn(CC(=O)NCCN3CCOCC3)c(=O)c2c1S(=O)(=O)N1CCC(C)CC1 | -0.2 | -8% | -2 | -3 | -11 | 3.6 | -5
Cc1nn(C)c(Cl)c1CN1CCN(CC(C)C)C(CCO)C1 (stereo not given) | -0.8 | 18% | 4 | 1 | -1.5 | ? | -1
Cc1cc(NC(=O)CSc2nnnn2-c2ccc(C(C)C)cc2)no1 | 1.6 | · | 5 | 1 | -5.3 | ? | 0

3 neighbouring compounds already listed, quoted:
SMILES | HNF4A DNA FP | Vif TR-FRET | B2AR ag | ALR inh | LANA-H2A inh | RanGTP-Imp inh | Calb FLC
Cc1sc2ncn(CC(=O)NCCN3CCOCC3)c(=O)c2c1S(=O)(=O)N1CCC(C)CC1 | -0.2 | -8% | -2 | -3 | -11 | 3.6 | -5
Cc1nn(C)c(Cl)c1CN1CCN(CC(C)C)C(CCO)C1 (stereo not given) | -0.8 | 18% | 4 | 1 | -1.5 | ? | -1
Cc1cc(NC(=O)CSc2nnnn2-c2ccc(C(C)C)cc2)no1 | 1.6 | · | 5 | 1 | -5.3 | ? | 0

The listing continues:
SMILES | HNF4A DNA FP | Vif TR-FRET | B2AR ag | ALR inh | LANA-H2A inh | RanGTP-Imp inh | Calb FLC
CCCOc1ccc(C(=O)NCC(c2ccco2)N(C)C)cc1OC (stereo not given) | 2.3 | · | -3 | -1 | -3.5 | -1.6 | -6
OC1(CC#CCN2CCCCC2)c2ccccc2-c2ccccc21 | -0.8 | 8% | 2 | -1 | 2.2 | 4.0 | -7
CCOC(=O)C1(Cc2cccc(Cl)c2)CCCN(C(=O)CCC(=O)N(C)C)C1 (stereo not given) | -4.2 | 3% | -5 | 1 | 3.8 | ? | 10
CCOc1cc(C(N)=O)cc(Br)c1OC | 1.9 | · | 0 | 1 | 1.4 | 4.6 | -3
O=C(NC(Cc1ccccc1)C(=O)O)/C(=C\c1ccc(Cl)cc1)NC(=O)c1ccco1 (stereo not given) | -6.8 | · | 0 | -8 | 1.6 | 4.0 | 0
N#C/C(=C\c1ccc(-c2ccccc2)o1)C(=O)Nn1cnnc1 | 2.2 | 0% | -4 | 98* | -1.1 | 1.9 | 5
COc1ccccc1-n1cnnc1SC(C)C(=O)NCC1CCCO1 (stereo not given) | 0.6 | -10% | 13 | · | -0.7 | · | ·
Cc1ccc(C2(C)NC(=O)N(CC(=O)Nc3nc(-c4ccccn4)cs3)C2=O)cc1 (stereo not given) | 3.3 | 0% | -1 | -7 | -1.9 | 5.3 | -7
CCc1ccc(OCC(=O)NNC(=O)c2c(CC)noc2C)cc1 | -1.5 | 2% | -7 | · | 3.8 | 3.8 | -2
Cc1cc(=O)c(C(=O)O)nn1-c1ccccc1Cl | -0.5 | · | 0 | -5 | -3.8 | -0.3 | -7
CCc1nc2ccc(C(=O)N(C)CC(=O)Nc3ccccc3C(F)(F)F)cc2nc1CC | -3.1 | -16% | 1 | -1 | 9.2 | · | ·
COCCCN1C(=O)C(=O)/C(=C(/O)c2ccc(S(=O)(=O)N3CCOCC3)cc2)C1c1cccc(Cl)c1 (stereo not given) | -1.4 | · | 4 | -3 | 2.1 | 1.2 | -3
Cc1cccc(NC(=S)Nc2cccc3ccccc23)c1 | 3.5 | 8% | -5 | -10 | 3.5 | -0.8 | -2
Cc1ccc(NC(=O)CN2C(=O)COc3ccc(C)cc32)nc1 | -2.3 | 6% | -3 | -3 | 2.2 | -0.1 | 0
COc1ccc2[nH]c3c(=O)n4c(nc3c2c1)SCCC4 | -4.2 | -2% | 3 | -13 | -5.7 | -5.6 | 5
COC(=O)c1cc2c(n1S(=O)(=O)c1ccc(C)cc1)C(=O)C(=O)c1[nH]cc(C(=O)OCc3ccccc3)c1-2 | 3.8 | -6% | -10 | · | · | · | ·
Nc1[nH][nH]c(=O)c1N=Nc1cccc(Cl)c1 | -1.9 | ? | 6 | 7 | 2.7 | 8.4 | -17
COc1cc(C(=S)N2CCOCC2)cc(OC)c1OS(=O)(=O)c1ccc(NC(C)=O)cc1 | -4.5 | 5% | -5 | -19 | -5.1 | 2.5 | 4
COc1cc(/C=C2\C(=O)N(c3ccc(S(N)(=O)=O)cc3)N=C2C)ccc1OC(=O)c1ccco1 | -6.0 | 23% | 27 | 17 | -4.1 | 3.1 | -9
CC(C)(C)C(=O)CSc1ccc(S(=O)(=O)N2CCN(Cc3ccccc3)CC2)cn1 | 4.1 | 3% | 0 | 5 | · | · | ·
CC1CCc2nc3ccc(S(=O)(=O)N4CCC(C(=O)NCc5ccccc5Cl)CC4)cc3c(C(=O)O)c2C1 (stereo not given) | 6.7 | · | 4 | 10 | 0.8 | 22* | -10
COC(=O)c1ccccc1C(=O)N1CC(O)CO1 (stereo not given) | -0.7 | 13% | -4 | · | -3.7 | 0.0 | -1
Cc1ccc(S(=O)(=O)N2CCN(C(=O)CNC(=O)c3ccc(Br)o3)CC2)cc1 | -2.2 | -7% | -2 | 0 | -0.8 | -4.7 | 1
CC(C)c1[nH]c(=O)c(C#N)c2c1CSC(C)(C)C2 | 3.2 | -5% | -1 | 2 | 0.4 | 2.8 | ·
Cc1ccc(Nc2nc(N)nc(CSc3nnnn3-c3ccccc3)n2)cc1 | -5.1 | -3% | -5 | -1 | -0.4 | 0.4 | 9
COc1cccc(CNC(=O)Cn2cc3c(n2)CCCCC3)c1 | 0.7 | -1% | 0 | · | 2.8 | 0.9 | 2
COc1ccccc1CCNC(=O)NC1CCCCC1 | 2.9 | 22% | -2 | 39 | -2.4 | ? | -10
O=c1[nH]c2ccc(Cl)cc2c(-c2ccccc2)c1N1CCN(c2ccccn2)CC1 | 2.5 | -12% | 6 | 1 | -0.5 | 3.0 | 27
CCN(CC)CCNC(=O)Cn1nc(-c2ccccc2)c2ccccc2c1=O | -1.6 | -1% | -2 | 0 | -0.5 | 1.3 | -6
Cc1ccc(S(=O)(=O)NC(C(=O)N2CCOCCOCCOCCOCC2)C(C)C)cc1 (stereo not given) | 0.3 | · | 1 | -8 | 0.9 | 3.1 | -7
COc1cccc(CN(Cc2cccnc2)S(=O)(=O)c2ccc(-n3cnnn3)c(C)c2)c1 | 2.4 | -7%&9% | 23 | -19 | -1.6 | 2.2 | 11
COc1ccc(CC(=O)NCC(=O)N/N=C/c2ccc(C)o2)cc1 | -0.8 | · | -1 | -59 | 3.8 | 4.5 | -4
Cc1ccccc1NC(=O)Cc1nnc(SCC(=O)NC2CCCCC2)n1C | 2.3 | 1% | -4 | 0 | 0.4 | 2.0 | -3
COc1ccccc1N1CCN(Cc2ccc(Br)o2)CC1 | 1.1 | 4% | 7 | 31 | 4.5 | · | ·
CN(C)c1cccc(C(=O)N/N=C/c2ccccc2F)c1 | 2.5 | -3% | 3 | 16 | -4.7 | · | -12
CN=c1nc(-c2ccccc2)n(-c2ccccc2)s1 | -1.2 | · | -6 | -6 | 1.4 | · | ·
C=CCn1c(=O)c(C(=O)NCc2ccccc2)c(O)c2ccccc21 | 6.3 | · | 0 | -2 | 2.6 | 5.0 | 5
COc1cccc(NC(=O)CC2Oc3ccccc3NC2=O)c1 (stereo not given) | -0.3 | -7% | 5 | -1 | -1.4 | -1.1 | -8
COc1cc(OC)cc(-c2c(C#Cc3ccsc3)c3cc(-c4cccc5[nH]ccc45)ccc3n2C)c1 | 6.3 | · | 3 | -9 | 2.8 | · | ·
CN1CCN(c2ccc(S(=O)(=O)N3CCCCC3)cc2NC(=O)/C=C/c2ccc(OC(F)F)cc2)CC1 | 1.6 | 3% | 28 | -17 | 2.1 | 0.0 | 8
CCCCn1c(N)c(N(CC(C)C)C(=O)C2CC(=O)N(c3ccccc3C(C)CC)C2)c(=O)[nH]c1=O (stereo not given) | -0.4 | 9% | 2 | 0 | 0.7 | 0.4 | 5
CC(=O)N1CCN(c2ccc(NC(=O)c3ccccc3C)cc2)CC1 | 1.2 | 3% | 1 | 9 | 4.2 | -0.6 | -1
O=C(O)CC(NC(=O)Nc1ccccc1)c1ccc(OC2CCCC2)cc1 (stereo not given) | 1.6 | · | 4 | -4 | -5.6 | 5.7 | 14
Cc1ccc(N/N=C/c2ccc(N3CCOCC3)cc2)cc1C | -2.0 | 26% | -1 | 99* | 2.6 | 2.5 | -2
O=Cc1cn[nH]c1-c1ccccc1 | -1.2 | -5% | -2 | -3 | 4.6 | -6.2 | 10
Cc1cc(C)nc(N2CCC(C(=O)NNC(=O)Cc3ccccc3)CC2)n1 | 0.2 | 3% | 1 | · | 2.8 | -2.2 | -5
Cn1cccc1C(=O)OCC(=O)c1c[nH]c2ccccc12 | 0.2 | -2% | -6 | -10 | 3.6 | · | ·
Fc1ccc(Cn2nnnc2C(c2ccc(Cl)cc2)N2CCSCC2)cc1 (stereo not given) | -3.0 | 3% | -3 | -12 | 3.8 | -0.3 | ?
Cc1nc(-c2ccc(Cl)cc2)sc1C1(C)CC(c2cccc(F)c2)=NO1 (stereo not given) | 3.0 | -11% | -15 | · | 0.9 | 0.3 | -5

High-throughput results as filed in PubChem.
